# Screens deposited in PubChem by several laboratories.
# Rce1 inhib = inhibitors of yeast Ras-converting enzyme | 290,000 compounds, 0.27% hits | calls only | yeast membranes, quenched prenylated peptide cleavage fluorescence | AID 2563;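 active = fall in fluorescence gain of 50% or more versus controls, with final raw signal at or below 3038400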;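 also: plate controls were neutral control wells for no effect and wells lacking membranes for full effect; tested at 10 µM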
# PABP polyA inh = blocks human PABP binding to poly(A) RNA; fluorescence polarization; 290,000 compounds, 1% hits; inhibition, % at 35 µM; P11940;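 active = 50% or more with normal probe brightness, or confirmed in later tests; about a fifth of its hits are not listed in these tables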;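 also: calls also rest on retests at 20 µM and on dose response follow-up; controls were probe without protein and protein plus probe with vehicle; some compounds called inactive have numbers as strong as hits; many hits fall short of the cut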
# Target sequence (P11940 whole entry, looked up): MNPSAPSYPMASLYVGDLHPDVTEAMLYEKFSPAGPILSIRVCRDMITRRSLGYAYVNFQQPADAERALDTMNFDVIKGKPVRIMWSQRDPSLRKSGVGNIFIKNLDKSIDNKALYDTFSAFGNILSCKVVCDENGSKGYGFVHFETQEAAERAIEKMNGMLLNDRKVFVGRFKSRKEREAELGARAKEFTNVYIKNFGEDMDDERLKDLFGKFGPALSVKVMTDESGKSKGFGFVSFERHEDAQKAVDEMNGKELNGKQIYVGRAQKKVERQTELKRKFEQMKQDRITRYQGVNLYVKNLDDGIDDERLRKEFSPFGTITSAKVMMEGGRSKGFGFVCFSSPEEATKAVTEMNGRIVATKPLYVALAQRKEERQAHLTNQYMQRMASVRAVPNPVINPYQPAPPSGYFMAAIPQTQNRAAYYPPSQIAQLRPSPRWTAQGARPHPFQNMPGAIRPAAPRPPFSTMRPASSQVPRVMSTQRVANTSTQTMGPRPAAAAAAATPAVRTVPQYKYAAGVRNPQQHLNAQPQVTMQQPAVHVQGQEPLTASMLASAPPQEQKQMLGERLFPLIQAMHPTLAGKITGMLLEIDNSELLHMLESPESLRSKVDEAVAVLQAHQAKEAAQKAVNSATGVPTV
# HIV Env fusion = HIV envelope-mediated fusion inhibition | HeLa-JRFL Env/CEM21 cell fusion, luciferase | inhibition, % at 12.3 µM | 360,000 compounds, 1.1% hits | AID 651610;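 active = mean replicate inhibition score of at least 50 and every replicate individually at or above 50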;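 also: 0% = plate neutral controls and 100% = maraviroc near 300 nM; one replicate is shown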
# eIF4H FP inh = inhibitors of RNA binding by human eIF4H; Q15056; inhibition, % at 35 µM; eIF4H fluorescence polarization binding assay; AID 2012; 290,000 compounds, 0.94% hits;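 active = 50% or more with normal probe brightness, or confirmed in later tests; about a fifth of its hits are not listed in these tables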;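 also: calls also rest on retests at 20 µM and on dose response follow-up; 0% = protein and probe with vehicle and 100% = probe without protein; strong numbers were not always called active; many hits fall short of the cut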
# UUG fidelity = modulators of start codon recognition fidelity in yeast; activity score, % at 18.7 µM; 350,000 compounds, 0.13% hits; S. cerevisiae UUG-firefly luciferase reporter, luminescence/redox ratio; AID 602363;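 active = replicate mean at a twofold rise or more, about +100% in these data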;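 also: firefly luciferase made from a UUG start codon reports start codon fidelity; reporter light over untreated wells divided by growth signal over untreated wells; some hits fall short of that in this replicate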
# CSC inhib = blocks cancer stem cells; cancer stem cell-like cells viability, luminescence; inhibition, % at 7.5 µM; 300,000 compounds, 1.1% hits;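 active = mean at 75% or more and at least half the replicates too; tested in HMLE shEcad cells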;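 also: 0% = median of negative and 100% = median of positive control wells; the first replicate is given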
# MT1-MMP act inh = inhibitors of human MT1-MMP activation. HT1080 RFP-PRO-GFP cells, GFP/RFP ratio fluorescence, overnight; percent of plate control window, DMSO zero. GFP/RFP ratio change, % at 20 µM. 360,000 compounds, 0.061% hits;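 active = GFP/RFP ratio change of at least 30% with cell ATP level not reduced by more than half and red fluorescence within 50% of control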; also: strong numbers were not always called active
#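 Test system: HT1080 RFP-PRO-GFP cells; Benchmarks: DMSO and RFP-L50D-GFP cell wells; Timing: cells overnight before dosing, compound overnight, 37 °C, 5% CO2; Compound: one 20 µM compound dose with 1% DMSO; Read-out: GFP/RFP fluorescence ratio.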
# eIF4H FP inh retest = also measured in eIF4H FP inh; calls as there; inhibition, %; compound at 20 µM; confirmation average;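 mean of two retest wells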
# PABP polyA inh retest = second read-out of PABP polyA inh, no call of its own (marks repeat the call); inhibition, %; compound at 20 µM; confirmation repeats;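 mean of two retest wells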
# MT1-MMP act inh RFP = recorded beside MT1-MMP act inh, whose call it bears; RFP signal change, %; measured here: RFP expression control read;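 0 = vehicle wells; hits needed this value within 50% of zero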
# Numbers without * were called inactive; i = inactive; / = not tested or not shown. The list is partial; rates above refer to the full screens.
SMILES,Rce1 inhib,PABP polyA inh,HIV Env fusion,eIF4H FP inh,UUG fidelity,CSC inhib,MT1-MMP act inh,MT1-MMP act inh RFP,others
CCc1nc(N=Nc2c(O)[nH]c3ccccc23)c2c3c(sc2n1)CCC3,i,9,6,-3,-10,13,-4,1,
O=C(CCC(=O)N1CCN(c2ccc(F)cc2)CC1)c1ccc(F)cc1,i,-2,14,-8,/,7,/,/,
O=C(Nc1ccccc1Cl)N1CCN(c2ccccn2)CC1,i,2,-108,8,-11,-2,13,1,
Cc1cc(C)n2nc(SCc3ccccc3)nc2n1,i,-9,-2,0,/,-5,-1,-3,
NS(=O)(=O)c1ccc(-c2ccc(C=NC3CCS(=O)(=O)C3)o2)cc1 (stereo not given),i,4,-37,11,-8,-10,-3,-1,
COc1ccc(CN2CCCC(C(=O)c3ccc(Cl)cc3)C2)cc1Cn1cncn1 (stereo not given),/,4,3,0,-22,-6,-1,-1,
O=C(CCC(NC(=O)OCc1ccccc1)C(=O)OCC(=O)N1CCCCC1)OCC(=O)N1CCCCC1 (stereo not given),i,-2,-11,-8,-16,6,3,5,
Cc1cc(C)c(OCC(=O)OCC(=O)N2CCc3ccccc3C2)c(C)c1,i,/,6,/,-4,-4,0,2,
CCOC(=O)C1=C(C)NC(=S)N(C(C)=O)C1c1ccc(Cl)cc1 (stereo not given),i,4,-49,-4,-15,9,1,0,
COc1ccc(C(=O)Nc2ccc(CN3CCOCC3)cc2)cc1Br,i,3,-7,5,8,/,1,-11,
O=Cc1cn(-c2ccccc2)nc1-c1cccnc1,i,-3,-11,-10,-7,3,0,0,
CC1=CC(C)(C(Cl)Cl)C(C)=CC1=O (stereo not given),i,33,-35,-6,-10,-9,7,2,
CC(C)c1ccc(N(CC(=O)NCC2CCCO2)C(=O)CCC(=O)Nc2nccs2)cc1 (stereo not given),i,3,-20,-8,-11,-4,1,2,
Cc1ccc2nc(SC(C(=O)Nc3ccc(F)cc3)c3ccccc3)[nH]c2c1 (stereo not given),i,-7,-104,-1,-11,-10,-4,-16,
O=c1cc(O)c2sc(Nc3ccc(F)c(Cl)c3)nc2[nH]1,i,4,68*,26,/,/,-13,2,
Cc1ccc(CNC(=O)CN(C2CCCCC2)S(C)(=O)=O)cc1,i,-4,/,8,0,-24,-2,1,
CN1c2ccccc2C(C)(C)C12C=Nc1c(cc(N3CCOCC3)c3ccccc13)O2 (stereo not given),i,8,38,-1,-41,/,-3,-1,
Cc1cc(N2CCN(C(=O)c3cccs3)CC2)c(F)cc1[N+](=O)[O-],i,1,1,-2,0,-7,14,-2,
CCN(CC(=O)Nc1cc(Cl)ccc1C)C(=O)CSCc1ccc(C)cc1,i,/,11,/,3,/,-2,-7,
CC(C)(C)n1nnnc1C(c1cccc(C(F)(F)F)c1)N1CCC(O)CC1 (stereo not given),i,3,-19,0,/,/,-2,1,
CCC1=C(OC(=O)N(CC)CC)N2C(=O)OC(=NCC3CC3)[C@]2(Cc2ccccc2)[C@H]2C1=CC[C@H]1C(=O)N(CC(=O)OC)C(=O)[C@H]12,i,4,-43,-3,/,3,/,/,
CC(OC(=O)C1CC1)C(=O)Nc1cc(C(F)(F)F)ccc1Cl (stereo not given),i,-23,13,-3,-8,-15,-3,1,
Cc1ccc([N+](=O)[O-])c(OCCCN2CCC(Cc3ccccc3)CC2)c1,i,/,-1,/,-5,70,6,-2,
CCOc1ccc(N2C(=O)CC(NCc3ccc(F)cc3)C2=O)cc1 (stereo not given),i,12,/,-14,-14,4,3,2,

# Brought forward from above: two entries, followed by the next part.
SMILES,Rce1 inhib,PABP polyA inh,HIV Env fusion,eIF4H FP inh,UUG fidelity,CSC inhib,MT1-MMP act inh,MT1-MMP act inh RFP,others
Cc1ccc([N+](=O)[O-])c(OCCCN2CCC(Cc3ccccc3)CC2)c1,i,/,-1,/,-5,70,6,-2,
CCOc1ccc(N2C(=O)CC(NCc3ccc(F)cc3)C2=O)cc1 (stereo not given),i,12,/,-14,-14,4,3,2,
Cc1cccc(NC(=S)NC2CC3CCCC(C2)N3CC(C)C)c1C (stereo not given),i,3,-22,0,-6,-15,-2,-2,
CCNc1nc(C)nc2c1cnn2C,/,/,33,/,-21,/,5,5,
Cc1oc2ccc(OCc3ccccc3F)cc2c1C(=O)O,i,-4,-18,-7,-9,-20,-2,2,
COCCN(C(=S)Nc1ccc(OC)c(Cl)c1)C1CCN(C(C)C)CC1,i,19,-1,-3,-22,5,6,2,
O=C(NNC(=S)NC1CCCCC1)c1cccs1,i,11,-8,1,-21,0,1,3,
COc1ccc2nc(Nc3nc(-c4cc5ccccc5oc4=O)cs3)sc2c1,i,7,-44,84,-27,10,2,-8,eIF4H FP inh retest=10;PABP polyA inh retest=21
CCCNC(=O)C1(C)CCN(Cc2cc(-c3ccccc3)on2)C1 (stereo not given),/,/,-28,/,3,/,3,-4,
Cc1ccc2c(c1)c1ccc3c(c1n2C)C(=O)C=CC3=O,/,6,-239,24,11,/,-8,4,
CCOc1ccc2oc(C(=O)N(C)CC(=O)Nc3ccc(OCC)c(OCC)c3)c(C)c2c1,i,/,-1,/,-6,-5,-2,-2,
CC(C)CC1C(=O)N(Cc2cn(CCC3OCCCO3)nn2)CCS(=O)(=O)N1Cc1ccc(-c2ccccc2)cc1 (stereo not given),/,/,-6,/,0,/,1,1,
CCOCCC(=O)Nc1ncc(S(=O)(=O)c2ccc([N+](=O)[O-])cc2)s1,/,/,25,/,-18,/,1,0,
O=C(Nc1ccccc1)c1sc2cc(C(F)(F)F)cnc2c1-c1cccs1,i,-12,/,-14,8,4,1,-1,

# Part of the list above in order of number of heavy atoms, descending.
SMILES,Rce1 inhib,PABP polyA inh,HIV Env fusion,eIF4H FP inh,UUG fidelity,CSC inhib,MT1-MMP act inh,MT1-MMP act inh RFP,others
COCCN(C(=S)Nc1ccc(OC)c(Cl)c1)C1CCN(C(C)C)CC1,i,19,-1,-3,-22,5,6,2,
Cc1oc2ccc(OCc3ccccc3F)cc2c1C(=O)O,i,-4,-18,-7,-9,-20,-2,2,
O=C(NNC(=S)NC1CCCCC1)c1cccs1,i,11,-8,1,-21,0,1,3,
CCNc1nc(C)nc2c1cnn2C,/,/,33,/,-21,/,5,5,

# Not a retest: an excerpt of the list.
SMILES,Rce1 inhib,PABP polyA inh,HIV Env fusion,eIF4H FP inh,UUG fidelity,CSC inhib,MT1-MMP act inh,MT1-MMP act inh RFP,others
Cc1cccc(NC(=S)NC2CC3CCCC(C2)N3CC(C)C)c1C (stereo not given),i,3,-22,0,-6,-15,-2,-2,
CCNc1nc(C)nc2c1cnn2C,/,/,33,/,-21,/,5,5,

# (continued)
SMILES,Rce1 inhib,PABP polyA inh,HIV Env fusion,eIF4H FP inh,UUG fidelity,CSC inhib,MT1-MMP act inh,MT1-MMP act inh RFP,others
COc1ccc(CCNC(=O)c2cc3cccc(OC)c3oc2=O)cc1OC,i,0,4,-2,-19,57,1,4,
O=C(O)CCCn1c(=O)c2cccn2c2ccc(F)cc21,i,13,-13,-14,-20,-7,3,2,
CSCCC(NC(=O)c1ccccc1)C(=O)N/N=C(\C)c1ccccc1 (stereo not given),i,-3,20,-4,-12,/,1,4,
Fc1ccc2c(c1)C(c1ccncc1)=NNC(c1ccc(Br)cc1)=N2,i,-8,/,0,-25,-7,0,2,
CCOC(=O)/C(C#N)=C/Nc1ccccc1NS(=O)(=O)c1ccc(C)c(C)c1,i,-1,22,-7,/,6,-1,-2,
COc1ccc(OC)c(NC(=O)c2cc(-c3cc(C)ccc3O)n[nH]2)c1,i,4,-27,1,-19,22,8,4,
COc1cc2ccccc2cc1C(=O)NC(=S)Nc1cccc(C(=O)O)c1C,i,10,24,-1,-36,-3,4,2,
N#Cc1nc(-c2cccs2)oc1NCc1ccc(Cl)cc1,i,-7,/,-10,/,-7,5,-4,
O=C(NCc1cccnc1)c1ccc(COc2cccc3ccccc23)o1,i,2,26,6,-12,6,-2,-5,
Cc1ccc(-c2ccc3nnc(SCC(=O)NCC4CCCO4)n3n2)cc1 (stereo not given),i,-5,1,-12,/,-5,1,3,
COc1ccc(C2=NNC(c3cccnc3)=Nc3ccccc32)cc1,i,14,12,7,/,5,-1,0,
O=C(NN1C(=O)c2ccccc2C1=O)C1C2CCCCC21 (stereo not given),i,2,-19,-4,/,-1,2,5,
CC(=O)Nc1ccc(N/C=C/C(=O)c2ccc(Br)cc2)cc1,i,-12,/,-11,-17,4,-2,2,
COCCNC(=O)CSc1nc2ccccc2c2nc(C)nn12,i,-9,-7,-14,-8,-14,-1,2,
O=C(c1cc2nc(-c3ccccc3)cc(C(F)(F)F)n2n1)N1CCN2CCCC2C1 (stereo not given),i,13,-3,-4,-15,-10,-4,-6,
Cc1ccc(-n2cc3c(-c4cccc(Br)c4)nnc(C)c3n2)cc1,i,7,-34,-10,-11,25,-101,22,
Cc1c(C(=O)NCc2cccnc2)sc2nc(-c3ccc(F)cc3)cn12,i,2,-1,-4,-11,36,0,-17,
O=C(C1CCN(S(=O)(=O)c2cc(Cl)ccc2Cl)CC1)N1CCCC1,i,-3,29,-9,5,/,-1,-4,
NC(=O)c1ccc(NC(=O)c2cccc3c2OCCCO3)cc1,/,6,10,-5,-6,-8,-1,7,
CC1(C)C(=O)Nc2ccccc2N1C(=O)COC(=O)COc1ccc(C#N)cc1,i,11,/,8,-9,-11,4,5,
CCOC(=O)c1c(NC(=O)COC(=O)c2nc(Cl)ccc2Cl)sc(C(=O)N(C)C)c1C,i,/,/,/,-7,0,2,10,
COc1ccc(C2C3=C(CCCC3=O)Nc3ccc4ncccc4c32)cc1OC (stereo not given),i,-10,-12,4,9,-6,5,3,
COc1cccc(NC(=O)C2CCN(S(=O)(=O)c3ccc4c(c3)CC(C)N4C(C)=O)CC2)c1 (stereo not given),i,-8,18,-22,-5,1,-1,-16,

# Looked up by compound from above, 3 records:
SMILES,Rce1 inhib,PABP polyA inh,HIV Env fusion,eIF4H FP inh,UUG fidelity,CSC inhib,MT1-MMP act inh,MT1-MMP act inh RFP,others
COc1ccc(C2C3=C(CCCC3=O)Nc3ccc4ncccc4c32)cc1OC (stereo not given),i,-10,-12,4,9,-6,5,3,
Cc1ccc(-n2cc3c(-c4cccc(Br)c4)nnc(C)c3n2)cc1,i,7,-34,-10,-11,25,-101,22,
NC(=O)c1ccc(NC(=O)c2cccc3c2OCCCO3)cc1,/,6,10,-5,-6,-8,-1,7,
